Yeast UUG start = yeast start codon fidelity modulation; S. cerevisiae UUG-firefly luciferase reporter, luminescence/redox ratio; AID 602363; actives 0.13% (n = 350,000); activity score, % at 18.7 µM;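 active = replicate mean at a twofold rise or more, about +100% in these data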;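 also: firefly luciferase made from a UUG start codon reports start codon fidelity; reporter light over untreated wells divided by growth signal over untreated wells; some hits fall short of that in this replicate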
MT1-MMP act inh = blocks activation of human MT1-MMP; HT1080 RFP-PRO-GFP cells, GFP/RFP ratio fluorescence, overnight; percent of plate control window, DMSO zero; GFP/RFP ratio change, % at 20 µM; actives 0.061% (n = 360,000);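 active = GFP/RFP ratio change of at least 30% with cell ATP level not reduced by more than half and red fluorescence within 50% of control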; also: strong numbers were not always called active
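Material – HT1080 RFP-PRO-GFP cells · Control set – DMSO wells and RFP-L50D-GFP cells · Incubation – overnight cell settling, then overnight compound exposure, 37 °C, 5% CO2 · Compound dosing – single-point 20 µM compound, 1% DMSO · Read-out – GFP/RFP fluorescence ratio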
HIV Env fusion = HIV envelope-mediated fusion inhibition; HeLa-JRFL Env/CEM21 cell fusion, luciferase; inhibition, % at 12.3 µM; actives 1.1% (n = 360,000); AID 651610;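 active = mean replicate inhibition score of at least 50 and every replicate individually at or above 50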;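 also: 0% = plate neutral controls and 100% = maraviroc near 300 nM; one replicate is shown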
PABP FP inh = PABP-poly(A) binding inhibition. P11940. PABP-poly(A) RNA binding, fluorescence polarization. inhibition, % at 35 µM. actives 1% (n = 290,000). AID 2014;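 active = 50% or more with normal probe brightness, or confirmed in later tests; about a fifth of its hits are not listed in these tables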;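 also: calls also rest on retests at 20 µM and on dose response follow-up; controls were probe without protein and protein plus probe with vehicle; some compounds called inactive have numbers as strong as hits; many hits fall short of the cut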
Target sequence (P11940 whole entry, looked up): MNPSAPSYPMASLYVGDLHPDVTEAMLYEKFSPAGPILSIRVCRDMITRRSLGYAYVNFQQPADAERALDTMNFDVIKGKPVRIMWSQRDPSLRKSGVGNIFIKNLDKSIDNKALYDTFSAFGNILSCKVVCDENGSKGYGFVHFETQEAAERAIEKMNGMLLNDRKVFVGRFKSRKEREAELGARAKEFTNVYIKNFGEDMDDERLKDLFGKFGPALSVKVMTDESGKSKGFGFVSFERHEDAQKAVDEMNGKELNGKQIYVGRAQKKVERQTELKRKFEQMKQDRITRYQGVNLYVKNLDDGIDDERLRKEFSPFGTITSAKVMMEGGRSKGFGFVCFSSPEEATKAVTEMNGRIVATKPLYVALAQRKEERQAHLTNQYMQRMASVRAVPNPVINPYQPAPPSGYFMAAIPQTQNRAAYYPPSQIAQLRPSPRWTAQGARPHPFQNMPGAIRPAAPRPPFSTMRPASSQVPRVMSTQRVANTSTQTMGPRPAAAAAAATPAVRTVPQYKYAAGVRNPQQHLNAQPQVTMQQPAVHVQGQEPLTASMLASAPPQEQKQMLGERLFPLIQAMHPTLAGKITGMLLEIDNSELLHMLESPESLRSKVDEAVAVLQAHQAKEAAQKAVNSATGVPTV
CSC inhib = blocks cancer stem cells | cancer stem cell-like cells viability, luminescence | inhibition, % at 7.5 µM | actives 1.1% (n = 300,000) | AID 2717;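 active = mean at 75% or more and at least half the replicates too; tested in HMLE shEcad cells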;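 also: 0% = median of negative and 100% = median of positive control wells; the first replicate is given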
eIF4H inh = inhibitors of RNA binding by human eIF4H. Q15056. eIF4H fluorescence polarization binding assay. inhibition, % at 35 µM. actives 0.94% (n = 290,000);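 active = 50% or more with normal probe brightness, or confirmed in later tests; about a fifth of its hits are not listed in these tables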;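 also: calls also rest on retests at 20 µM and on dose response follow-up; 0% = protein and probe with vehicle and 100% = probe without protein; strong numbers were not always called active; many hits fall short of the cut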
Rce1 inhib = yeast Ras-converting enzyme inhibition; AID 2563; calls only; Q03530; actives 0.27% (n = 290,000); yeast membranes, quenched prenylated peptide cleavage fluorescence;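 active = fall in fluorescence gain of 50% or more versus controls, with final raw signal at or below 3038400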;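 also: plate controls were neutral control wells for no effect and wells lacking membranes for full effect; tested at 10 µM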
MT1-MMP act inh RFP = also measured in MT1-MMP act inh; calls as there; RFP signal change, %; measured here: RFP expression control read;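 0 = vehicle wells; hits needed this value within 50% of zero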
* marks the source's active call; other numbers are inactive results; i = inactive; x = no result given. Random draw from the library. About 2.9% of those tested had a hit in this group.

1. CC(C)c1ccccc1NC(=S)NCc1ccncc1
2. CN(Cc1ccccc1)C(=O)c1cc2ccccc2o1
3. O=C(/C=C/c1ccc(Cl)cc1)NC1CC2CCC1C2 (stereo unspecified)
4. CCCCNC(=O)CNC(=O)c1nn(-c2ccc(OC)c(Cl)c2)c(=O)c2ccccc12
5. CC(Oc1ccccc1)C(=O)Nc1cccc(-c2nc3ccccc3[nH]2)c1 (stereo unspecified)
6. CC(C)NC(=O)C1(C)Cc2c(-c3ccc(N(C)C)cc3)ccnc2O1 (stereo unspecified)
Assay by compound	1	2	3	4	5	6
Yeast UUG start	x	x	-22	x	-17	1
MT1-MMP act inh	0	-4	3	4	4	2
MT1-MMP act inh RFP	0	-2	-3	1	-9	1
HIV Env fusion	3	x	-3	-4	x	38
PABP FP inh	-5	1	14	10	-6	x
CSC inhib	16	-2	-2	-15	-3	x
eIF4H inh	1	-2	-7	-16	-12	x
Rce1 inhib	x	i	i	i	i	x

7. COc1ccc(C2C3=C(CC(C)(C)CC3=O)N(CCN3CCOCC3)C3=C2C(=O)CC(C)(C)C3)cc1
8. Cn1c(=O)c2c(nc(NC3CCCCC3)n2CC(=O)C23CC4CC(CC(C4)C2)C3)n(C)c1=O
9. O=C(CN1CCSC1=NCc1ccccc1)c1ccc(Cl)c(Cl)c1
10. Cc1cc(=O)n2nc(N3CCC(C(=O)Nc4c(F)c(F)c(F)c(F)c4F)CC3)sc2n1
11. Cc1ccc(NC(=O)C(OC(=O)c2ccc(F)cc2)c2ccccc2)cc1Cl (stereo unspecified)
12. Fc1ccc(N=Cc2ccc[nH]2)cc1
Assay by compound	7	8	9	10	11	12
Yeast UUG start	-18	-6	x	-8	-27	-8
MT1-MMP act inh	-2	-5	-5	-2	x	1
MT1-MMP act inh RFP	2	-6	2	3	x	4
HIV Env fusion	14	-33	10	-7	-9	-37
PABP FP inh	15	-8	4	8	-9	4
CSC inhib	-20	x	3	0	-2	-10
eIF4H inh	6	-1	-1	0	-2	-1
Rce1 inhib	i	i	i	i	i	i

13. CC(C)(C)c1ccc(C2=CC(c3ccccc3F)n3ncnc3N2)cc1 (stereo unspecified)
14. Cc1cccc(/C=N\NC(=O)c2ccc(Cl)cc2)c1O
15. O=C(O)C(NC(=O)C1CCCN1C(=O)OCc1ccccc1)c1ccccc1 (stereo unspecified)
16. CCN(CC)C(=O)CC(c1ccccc1)c1ccco1 (stereo unspecified)
17. COc1ccc(NC(=O)CC(c2ccccc2)c2ccco2)cc1 (stereo unspecified)
18. C/C(=N/NC(=O)CNC(=O)c1cccnc1)c1ccc([N+](=O)[O-])cc1
Assay by compound	13	14	15	16	17	18
Yeast UUG start	-20	x	-16	3	-15	-9
MT1-MMP act inh	2	-7	2	-5	-3	0
MT1-MMP act inh RFP	3	-3	4	0	0	-1
HIV Env fusion	-21	-38	2	1	-11	18
PABP FP inh	x	-2	0	2	-2	-3
CSC inhib	4	-13	1	-6	5	x
eIF4H inh	x	1	0	-6	1	-3
Rce1 inhib	i	i	i	i	i	i

19. COc1ccc(/C=N/NC(=O)c2ccc(Br)cc2)cc1Cn1cc(Cl)cn1
20. COc1ccc(NC(=O)CSc2nc(C)cs2)c(OC)c1
21. CCNC(=O)CN(c1ccc(F)cc1)S(=O)(=O)c1ccc2c(c1)OCCO2
22. C#CCn1cc(/C=N/NC(=O)COc2cccc3cccnc23)c2ccccc21
23. COc1ccccc1N1CCN(C(=O)C2CCN(S(=O)(=O)c3ccc4c(c3)CC(C)N4C(C)=O)CC2)CC1 (stereo unspecified)
24. COc1ccc(C(=O)Nc2ccc(C(=O)N3CCCC3)cc2)cc1[N+](=O)[O-]
Assay by compound	19	20	21	22	23	24
Yeast UUG start	x	0	8	-13	-2	0
MT1-MMP act inh	1	0	2	-4	4	0
MT1-MMP act inh RFP	1	-3	4	0	-1	6
HIV Env fusion	-3	-5	-3	-20	-8	0
PABP FP inh	-7	0	-4	-8	-9	4
CSC inhib	-7	-11	-8	4	4	4
eIF4H inh	-10	4	8	-9	-6	-10
Rce1 inhib	i	x	i	i	i	i

Among those listed so far, two have a nitro group on carbon.
18. C/C(=N/NC(=O)CNC(=O)c1cccnc1)c1ccc([N+](=O)[O-])cc1
24. COc1ccc(C(=O)Nc2ccc(C(=O)N3CCCC3)cc2)cc1[N+](=O)[O-]
Assay by compound	18	24
Yeast UUG start	-9	0
MT1-MMP act inh	0	0
MT1-MMP act inh RFP	-1	6
HIV Env fusion	18	0
PABP FP inh	-3	4
CSC inhib	x	4
eIF4H inh	-3	-10
Rce1 inhib	i	i

The list continues:
25. CN(c1cccc(NC(=O)c2ccccc2N(C)S(C)(=O)=O)c1)S(C)(=O)=O
26. COc1ccc(C2CC(c3cccc(OC)c3)n3nc(N)nc3N2)cc1 (stereo unspecified)
27. FC(F)(F)c1ccccc1-n1c(CN2CCCCC2)n[nH]c1=S
28. CCCN1C(=O)N(c2cccc(C)c2)C(C)(O)CC1(C)C (stereo unspecified)
29. COc1ccc(S(=O)(=O)N(CC(=O)NCc2cccnc2)c2ccc(C)cc2)cc1OC
30. O=C(Nc1ccc(F)cc1F)c1ccco1
Assay by compound	25	26	27	28	29	30
Yeast UUG start	-14	-9	x	0	-13	-16
MT1-MMP act inh	0	-2	-1	2	1	0
MT1-MMP act inh RFP	1	1	3	1	0	3
HIV Env fusion	-8	2	-4	-3	-27	-59
PABP FP inh	-4	14	-1	-3	8	-11
CSC inhib	-15	-19	-11	-9	-6	-4
eIF4H inh	1	-7	0	3	14	-9
Rce1 inhib	x	i	i	i	i	i

31. O=C(N/N=C/c1cccc([N+](=O)[O-])c1)C1CC1c1ccccc1 (stereo unspecified)
32. OCC1(CCc2ccccc2)CCCN(CCCC(F)(F)F)C1 (stereo unspecified)
33. Cc1ccc(-n2c(C)cc(=O)cc2C)c(C)c1
34. COC(=O)C1CCN(Cc2ccc(C)cc2)CC1
35. Cc1ccc(Cn2c(=O)oc3ccccc32)cc1
36. CCOC(=O)C1OC1(c1ccccc1)c1ccccc1 (stereo unspecified)
Assay by compound	31	32	33	34	35	36
Yeast UUG start	-25	-2	1	-1	-10	-6
MT1-MMP act inh	0	0	1	-1	-1	1
MT1-MMP act inh RFP	-4	3	6	6	5	6
HIV Env fusion	1	2	10	x	0	19
PABP FP inh	-6	-11	-4	4	4	x
CSC inhib	-6	x	-6	-8	-7	x
eIF4H inh	-12	-1	-12	-13	9	x
Rce1 inhib	i	i	i	i	i	x

Random excerpt: 3 records from the list, in no set order.
32. OCC1(CCc2ccccc2)CCCN(CCCC(F)(F)F)C1 (stereo unspecified)
33. Cc1ccc(-n2c(C)cc(=O)cc2C)c(C)c1
35. Cc1ccc(Cn2c(=O)oc3ccccc32)cc1
Assay by compound	32	33	35
Yeast UUG start	-2	1	-10
MT1-MMP act inh	0	1	-1
MT1-MMP act inh RFP	3	6	5
HIV Env fusion	2	10	0
PABP FP inh	-11	-4	4
CSC inhib	x	-6	-7
eIF4H inh	-1	-12	9
Rce1 inhib	i	i	i

(list continues)
37. CC(=O)Nc1ccc(Nc2ncnc3c2cnn3-c2ccccc2)cc1
38. CCOC(=O)C(=NC(C)(C)C)NNc1cc(Cl)ccc1Cl
39. CC(O)c1nc2ccccc2n1CCCOc1ccccc1 (stereo unspecified)
40. COc1ccc(Cl)cc1NC(=O)CN(C)C(=O)c1cc(C)oc1C
41. Cc1ccc(C(=O)Nc2cccc(C(=O)N/N=C/c3ccc(O)cc3)c2)cc1
42. Cc1ccc(C(=O)OCC(=O)c2ccc(Cl)s2)s1
Assay by compound	37	38	39	40	41	42
Yeast UUG start	-10	x	-18	-5	-18	-15
MT1-MMP act inh	8	6	-5	3	1	0
MT1-MMP act inh RFP	0	9	-1	2	3	2
HIV Env fusion	-160	-13	7	-11	-2	x
PABP FP inh	0	1	26	x	19	2
CSC inhib	-7	28	4	-11	x	10
eIF4H inh	-6	-6	40	x	-1	2
Rce1 inhib	i	i	i	x	i	i

Sorted by number of heavy atoms (lowest first): three of the compounds above.
42. Cc1ccc(C(=O)OCC(=O)c2ccc(Cl)s2)s1
40. COc1ccc(Cl)cc1NC(=O)CN(C)C(=O)c1cc(C)oc1C
37. CC(=O)Nc1ccc(Nc2ncnc3c2cnn3-c2ccccc2)cc1
Assay by compound	42	40	37
Yeast UUG start	-15	-5	-10
MT1-MMP act inh	0	3	8
MT1-MMP act inh RFP	2	2	0
HIV Env fusion	x	-11	-160
PABP FP inh	2	x	0
CSC inhib	10	-11	-7
eIF4H inh	2	x	-6
Rce1 inhib	i	x	i

Additional entries follow.
43. COCCNC(=O)[C@H]1N2C(=O)c3ccccc3C2SC1(C)C (stereo partly specified)
44. CCNC(=O)N1C[C@H]2CON(C)[C@H]2C[C@H]1c1ccccc1Br
45. NCCNC(=O)Cc1ccc(NC(=O)Cc2ccc(Nc3ncnc4c3ncn4[C@@H]3O[C@H](CO)[C@@H](O)[C@H]3O)cc2)cc1
46. CN(CCN1CCOCC1)C(=O)CC1C(=O)NCCN1Cc1ccccc1F (stereo unspecified)
47. Cc1cccc(NC(=O)c2ccccc2[N+](=O)[O-])n1
48. CC(CN1CCN(c2ccccc2)CC1)c1ccccc1 (stereo unspecified)
Assay by compound	43	44	45	46	47	48
Yeast UUG start	1	-29	-23	-8	-14	-14
MT1-MMP act inh	-3	2	1	1	0	-2
MT1-MMP act inh RFP	0	6	0	5	7	-4
HIV Env fusion	-5	-89	-4	-16	x	-18
PABP FP inh	2	x	x	10	9	18
CSC inhib	-11	x	-13	-8	-12	-5
eIF4H inh	1	x	x	-2	3	-6
Rce1 inhib	i	x	x	i	i	i

49. Cc1ccc(-c2ccc(OCC(=O)N3CCOCC3)cc2)cc1
50. COC(c1ccccc1)(c1ccccc1)C(Oc1nccc(C)n1)C(=O)O (stereo unspecified)
51. COc1cc2c(cc1NC(=O)COC(=O)CNS(=O)(=O)c1ccc(C)cc1)oc1ccccc12
52. CC1(C(=O)NS(=O)(=O)C2CC2)CCCN(C(=O)COc2ccc(Cl)cc2Cl)C1 (stereo unspecified)
53. O=C(NCc1ccccc1)N1CCC(c2nc3ccccc3[nH]2)CC1
54. CCC1(CC)Cc2ccccc2C(=C(C#N)C#N)N1
Assay by compound	49	50	51	52	53	54
Yeast UUG start	-16	-19	x	0	-14	-14
MT1-MMP act inh	2	-3	4	3	2	-6
MT1-MMP act inh RFP	-4	3	2	0	2	-2
HIV Env fusion	-70	-13	-3	-30	5	2
PABP FP inh	-4	6	-24	x	15	2
CSC inhib	20	-17	2	x	-3	-1
eIF4H inh	-9	8	-5	x	3	-13
Rce1 inhib	i	i	i	x	i	i

55. O=C(c1cc(=O)[nH]c2ccccc12)N1CCN(c2ccc([N+](=O)[O-])cc2)CC1
56. CCn1c(=N)c(S(=O)(=O)c2ccccc2)cc2c(=O)n3ccccc3nc21
57. Cc1nn(CCO)c2c1C(=O)CCC2
58. Clc1ccc2c(NCc3ccco3)ncnc2c1
59. Cc1ccc(Cl)cc1N1CCN(Cc2nc3ccsc3c(=O)[nH]2)CC1
60. C[C@@H]1CN([C@H](C)CO)C(=O)c2c(c3ccccc3n2C)-c2ccccc2CO[C@H]1CN(C)C(=O)CCC(F)(F)F
Assay by compound	55	56	57	58	59	60
Yeast UUG start	-12	x	-21	x	x	5
MT1-MMP act inh	7	1	-1	0	-2	0
MT1-MMP act inh RFP	-4	-2	-4	-15	-3	-1
HIV Env fusion	8	14	x	x	x	26
PABP FP inh	1	9	-6	6	-1	x
CSC inhib	-6	16	11	-9	0	x
eIF4H inh	-3	11	4	-9	-3	x
Rce1 inhib	i	i	i	i	i	x

Quoted from the listing.
For eIF4H inh, Clc1ccc2c(NCc3ccco3)ncnc2c1 reads -9
For CSC inhib, Cc1nn(CCO)c2c1C(=O)CCC2 reads 11
For MT1-MMP act inh, CCn1c(=N)c(S(=O)(=O)c2ccccc2)cc2c(=O)n3ccccc3nc21 reads 1
For MT1-MMP act inh, Cc1ccc(Cl)cc1N1CCN(Cc2nc3ccsc3c(=O)[nH]2)CC1 reads -2

From PubChem
